# RanGTP-Impb inh: disruptors of Ran-importin-beta complex formation – biochemical, FRET, CFP-Ran, YFP-importin-beta, homogeneous, primary screen; AID 2216; inhibition, % (test concentration not listed); cell-free CFP-Ran/YFP-importin-beta FRET ratio; 300,000 tested, 1.1% active;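 active = most replicates above 15%; inconclusive = exactly half above 15%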;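 note: 0% = DMSO wells and 100% = Ran loaded with GDP instead of GTP; wells of about 40 µL received 100 nL stock; the first replicate is given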
# FGF22 binding: binders of recombinant human FGF22 by thermal shift; AID 651658; SYPRO orange fluorescence; percent of sucrose octasulfate shift, DMSO zero; 340,000 tested, 1.5% active; Q9HCT0; calls only at 9.99 µM;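 active = melting point raised past a set limit in the mean and every replicate; inconclusive = no clear call; three in four hits are not shown here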
# Target sequence (Q9HCT0 whole entry, looked up): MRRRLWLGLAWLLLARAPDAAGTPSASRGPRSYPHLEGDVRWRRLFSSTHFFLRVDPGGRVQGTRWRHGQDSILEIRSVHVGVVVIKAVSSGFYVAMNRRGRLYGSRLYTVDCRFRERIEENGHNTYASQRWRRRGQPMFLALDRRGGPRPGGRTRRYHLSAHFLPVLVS
# T cruzi repl: blocks replication of Trypanosoma cruzi; T. cruzi beta-gal in NIH3T3, luminescence, 90 h; 300,000 tested, 1.4% active; inhibition, % (no concentration beside the values);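 active = mean inhibition across valid replicates above about 55%, limit read from the data; inconclusive = mean below that limit but half or more replicates reach it; inactive = mean below it, under half of replicates reach it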;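 note: signal also drops with host cell toxicity which is not excluded here; 0% = plate median of DMSO wells and 100% = zero luminescence signal; higher percent means less beta-gal luminescence so fewer parasites; stock transfer was 50 nL into about 50 µL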
# ALR H2O2 inh: inhibitors of human sulfhydryl oxidase ALR; P55789; purified ALR, DTT oxidation, H2O2 HRP-luminol luminescence; inhibition, % (concentration not given with the values); 290,000 tested, 3.8% active;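 active = mean and each replicate at 75% or more; inconclusive = only one of the two met; inactive = neither met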;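 note: stock transfer was 7.5 nL into about 7.5 µL; 0% = neutral wells and 100% = wells with inactivated enzyme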
# Target sequence (P55789 whole entry, looked up): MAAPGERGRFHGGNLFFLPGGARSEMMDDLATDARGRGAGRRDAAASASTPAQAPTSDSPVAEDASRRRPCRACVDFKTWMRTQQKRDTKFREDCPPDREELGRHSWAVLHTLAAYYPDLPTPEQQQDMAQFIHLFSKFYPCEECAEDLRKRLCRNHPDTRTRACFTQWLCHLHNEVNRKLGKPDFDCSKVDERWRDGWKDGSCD
# MLL AF4-AF9 inh: MLL-AF4/AF9 protein interaction inhibition. AlphaScreen, biotin-AF4 peptide binding to FLAG-AF9. 350,000 tested, 0.47% active. P42568. inhibition, % at 10 µM;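 active = every replicate reaching a set inhibition limit, whatever the replicate mean, cut at about 25% in these data; inconclusive = mean inhibition reaches that limit but some replicates miss it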;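 note: 0% = plate neutral control median and 100% = total signal loss; the record names both 10 and 1 µM as test concentration; the first replicate is given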
# Target sequence (P42568 whole entry, looked up): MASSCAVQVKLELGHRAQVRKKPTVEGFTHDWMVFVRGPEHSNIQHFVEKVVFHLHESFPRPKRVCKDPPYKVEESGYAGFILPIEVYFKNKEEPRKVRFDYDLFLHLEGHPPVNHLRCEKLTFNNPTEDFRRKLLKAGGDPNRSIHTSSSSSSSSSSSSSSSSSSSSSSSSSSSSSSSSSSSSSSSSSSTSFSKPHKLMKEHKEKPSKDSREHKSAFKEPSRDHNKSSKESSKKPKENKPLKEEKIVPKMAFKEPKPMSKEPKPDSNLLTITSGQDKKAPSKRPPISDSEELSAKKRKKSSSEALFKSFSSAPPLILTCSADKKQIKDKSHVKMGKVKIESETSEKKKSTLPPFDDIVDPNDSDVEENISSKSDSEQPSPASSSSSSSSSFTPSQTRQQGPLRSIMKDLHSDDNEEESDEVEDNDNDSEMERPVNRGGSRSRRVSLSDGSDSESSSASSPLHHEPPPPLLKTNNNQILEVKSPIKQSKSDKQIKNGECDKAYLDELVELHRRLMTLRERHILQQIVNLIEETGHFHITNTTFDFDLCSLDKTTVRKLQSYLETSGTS
# Beta cell apopt: blocks beta cell apoptosis; INS-1E cytokine-induced death, ATP luminescence, 48 h; percent of positive-control rescue, neutral wells zero; protection from apoptosis, % (concentration not given with the values); 300,000 tested, 0.8% active;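 active = all replicates at 75% or more, or half of them and the mean; inconclusive = half reach 75% but not the mean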;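 note: 0% = cytokine-treated negative control wells and 100% = positive control rescue; higher means more ATP so stronger rescue from cytokine killing; wells of about 40 µL received 100 nL stock; the first replicate is given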
# rRNA inh HTS: inhibits bacterial ribosomal RNA function over humanized ribosomes; E. coli WT GFP vs humanized-ribosome RFP mutants, fluorescence, 24 h; stronger effect = lower value; DMSO median 0, no signal -100; GFP signal change (wild-type ribosome), % (no concentration beside the values); 350,000 tested, 1.6% active; AID 720706;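 active = significant combined selectivity score with lowered wild-type GFP, culture density cut under 30%, mutant RFP and density less affected; inactive = any of these conditions unmet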; note: one replicate is shown; some compounds called inactive have numbers as strong as hits
# Calb FLC: affects C. albicans growth with fluconazole. 300,000 tested, 0.57% active. growth inhibition, % (test concentration not listed). AID 1979. C. albicans CaCi-2 (fluconazole-resistant clinical isolate) + fluconazole, Alamar Blue growth, 48 h;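 active = most replicates above 75%; inconclusive = exactly half above 75%; inactive = most below 75%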;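 note: all wells also contain fluconazole at 8 µg/ml as a sub-toxic cotreatment; 0% = median of DMSO wells and 100% = median of geldanamycin control wells; wells of about 8 µL received 7.5 nL stock; the first replicate is given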
# rRNA inh HTS OD600: recorded beside rRNA inh HTS, whose call it bears; OD600 change, %; measured here: OD600 growth;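 optical density of the mix in the first replicate; 0 = DMSO median and -100 = no signal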
# rRNA inh HTS RFP: also measured in rRNA inh HTS; calls as there; RFP signal change, %; measured here: RFP humanized mutant strains;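 first replicate; 0 = DMSO median and -100 = no signal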
# Active calls of the source: *; i = inactive; ? = inconclusive; · = no result given.
SMILES,RanGTP-Impb inh,FGF22 binding,T cruzi repl,ALR H2O2 inh,MLL AF4-AF9 inh,Beta cell apopt,rRNA inh HTS,rRNA inh HTS OD600,rRNA inh HTS RFP,Calb FLC
CCS(=O)(=O)N1CCC(C(=O)NCCC2=CCCCC2)CC1,4.9,·,-12,-14,·,-6,7,8,-0.8,-6
CCn1cc(C(=O)O)c(=O)c2cc(S(=O)(=O)N(C)C)ccc21,1.2,·,0,-5,·,0,·,·,·,4
Cc1ccc(COC(=O)c2cc(S(=O)(=O)N3CCCCC3)ccc2N2CCOCC2)cc1,2.2,i,18,-2,-7.3,60,10,11,-1.0,-4
O=[N+]([O-])c1ccc(CSc2ccc(-c3ccccn3)nn2)cc1,0.2,i,43,-8,1.4,11,1,1,-2.4,7
O=C(Nc1cccc(S(=O)(=O)N2CCOCC2)c1)C1CC1,·,i,·,2,-0.5,-10,1,7,-0.5,·
CCc1nnc(NC(=O)[C@@H](NC(=O)c2cccc(S(=O)(=O)N(CC)CC)c2)C(C)C)s1,0.6,·,4,-4,·,2,·,·,·,-10
CN(C)C(=O)c1ccc(NC(=O)COC(=O)c2cc(S(=O)(=O)N(C)C)ccc2N2CCCC2)cc1,2.9,·,-10,2,-2.1,-1,0,-11,2.5,0
COC(=O)C1C2C=CC3(CN(C(C)C)C(=O)C13)O2 (stereo not drawn),-2.1,i,-9,·,0.6,-9,10,7,-2.0,-2
N#Cc1ccc(OCC(=O)NCC2(N3CCCCC3)CCCCC2)cc1,1.2,i,5,-3,1.0,-3,-8,-10,-3.1,-28
COc1ccc(/C=N/NC(=O)c2ccc(COc3cccc4cccnc34)cc2)cc1O,-4.3,i,4,22,12,-3,-21,0,23,-1
CC(C)Oc1ccc(C(=O)N/N=C/c2ccc(-c3ccc(S(=O)(=O)Nc4ncccn4)cc3)o2)cc1,0.4,·,-6,0,·,2,·,·,·,-6
Cc1ccc(C(CCN(Cc2ccccc2)C(=O)c2ccco2)c2ccco2)cc1 (stereo not drawn),2.2,i,16,1,-2.1,-10,-1,1,-1.1,2
CSc1ccccc1NC(=S)Nc1ccccc1C(F)(F)F,-5.5,·,-16,51,·,-6,·,·,·,0
Cc1cc2cccc(C)c2nc1SCC(=O)NNC(=O)c1ccco1,2.3,i,-14,-3,0.5,-5,15,8,-0.3,-1
CCC[N+]1(CC#CC2(O)CCCCC2)CCOCC1,0.6,i,-11,-1,-2.1,-1,30,25,1.0,-5
COc1ccc(C=O)cc1Cn1ccnc1,-3.6,i,-15,-3,-1.1,-2,9,2,17,17
COc1ccc(-c2nc3ccccc3c(=O)o2)cc1OC,-0.9,·,-6,0,·,2,·,·,·,0
COC(=O)c1cc2ccsc2n1Cc1ccccc1F,-5.4,i,-9,-1,-8.8,-4,-13,-24,-7.8,0
Cn1c(CCCOc2ccc(Cl)cc2Cl)nnc1SCC(=O)Nc1nccs1,2.6,·,0,-10,·,-8,·,·,·,22
COc1cc(CCC(=O)N2CCN(c3ccccc3)CC2)cc(OC)c1OC,2.6,i,-8,21,-1.3,5,-7,-9,3.0,-10
Cc1occc1C(=O)Nc1sccc1C(N)=O,6.2,i,-11,60,0.5,-14,-2,0,0.4,5
CN1CCN(CCC(=O)Nc2ccccc2Cl)CC1,1.4,·,-6,-28,·,0,·,·,·,30
CC(=O)N(C(C)=O)S(=O)(=O)c1ccc(N=NN2CCCCC2)cc1,-2.1,i,0,-5,1.9,2,3,-1,-1.4,?
COc1ccc(NC(=O)CN(C)CC(=O)Nc2cccc(S(=O)(=O)N(C)c3ccccc3)c2)cc1,-2.3,i,13,6,1.7,1,-23,-27,-0.8,-9
COc1ccc(/C=N/NC(=O)CC(=O)NCCc2ccccc2)cc1OC,-1.4,·,-3,-2,·,6,·,·,·,6

# Next part
SMILES,RanGTP-Impb inh,FGF22 binding,T cruzi repl,ALR H2O2 inh,MLL AF4-AF9 inh,Beta cell apopt,rRNA inh HTS,rRNA inh HTS OD600,rRNA inh HTS RFP,Calb FLC
Cc1ccc(C(=O)Nc2nnc(CC(=O)N/N=C/c3ccc(O)c(O)c3)s2)cc1,3.7,i,1,62,0.5,1,2,10,-0.5,1
Cc1ccc2[nH]c3nc(SCCN4CCOCC4)nnc3c2c1,1.0,·,15,0,·,6,·,·,·,6
Cc1cccc(C(=O)NCCCNC(=O)c2ccco2)c1,1.3,i,-4,-3,-9.0,-3,5,11,-0.9,1
CC(C)c1ccc(S(=O)(=O)N2CCN(C(=O)C3CCN(C(=O)c4ccc(F)cc4)CC3)CC2)cc1,1.3,i,18,-2,2.3,1,-22,-18,-2.2,8
Cc1cc(C(=O)Cn2c(CO)nc3ccccc32)c(C)n1C,1.3,i,18,3,-48,1,6,2,-2.3,-1
COc1ccccc1N=Nc1c(C)[nH]n(-c2ccccc2)c1=O,-1.9,i,12,-5,2.5,-11,5,3,-0.4,-4
O=C(Nc1ccc(Cl)c(C(=O)N2CCOCC2)c1)c1ccccc1,?,i,3,-5,-7.6,-9,-2,1,-1.6,-3
COc1ccc(NC(=O)CCS(=O)(=O)c2ccc3c(c2)CCCN3C(C)=O)cc1,4.6,·,-9,39,·,3,·,·,·,-2
Cc1ccccc1C(=O)N=c1sccn1C,4.1,·,-2,-3,·,-4,·,·,·,-3
N/C(=N\OC(=O)c1ccccc1[N+](=O)[O-])c1cccnc1,0.1,·,-5,-8,·,-2,·,·,·,-6
CSCCC(NC(=O)c1ccco1)c1nc2ccccc2[nH]1 (stereo not drawn),0.0,i,-14,-4,-2.7,-10,4,8,1.8,0
CCc1ccc(NC(=S)N(CCN(C)C)C(C)c2ccncc2)cc1 (stereo not drawn),-0.2,i,5,-9,6.1,-2,-1,-2,-3.3,1
O=C(CN(c1ccccc1)S(=O)(=O)c1ccccc1)N/N=C/c1ccco1,-0.7,·,-9,3,·,-2,·,·,·,2
O=[N+]([O-])c1ccccc1C1Nc2cccc3cccc(c23)N1,2.6,·,-5,-19,·,7,·,·,·,16
O=C(Nc1cnn(C23CC4CC(CC(C4)C2)C3)c1)c1cc(-c2ccccc2)on1,3.0,·,61*,0,·,14,·,·,·,20
CCC1=NN2C(=N)/C(=C\c3cccn3-c3cccc(Cl)c3)C(=O)N=C2S1,-1.4,i,-7,11,-2.1,7,-26,-33,0.3,?
O=S(=O)(c1ccc(Cl)cc1)N1CCC(O)(c2cccnc2)CC1,5.9,·,6,0,·,-9,·,·,·,3
O=C(N1CCCC1)N1CCN(S(=O)(=O)c2ccccc2)CC1,-4.1,i,-2,-11,-3.0,-2,3,11,-1.3,0
COC(=O)c1c(NC(=O)COC(=O)CCNS(=O)(=O)c2ccc(NC(C)=O)cc2)sc(C)c1C,5.7,i,-2,-16,0.3,·,-4,-11,2.3,6
COc1ccc(C2CC(=O)c3sc(N)nc3C2)cc1 (stereo not drawn),?,·,5,-36,·,-7,·,·,·,14
CC1CCc2[nH]c3ccc(C(=O)O)cc3c2C1 (stereo not drawn),?,i,-7,-12,2.1,-6,-1,-2,-0.5,42
COCC1CCN(C(=O)CCc2nnc(C3(c4ccc(Cl)cc4)CCC3)o2)CC1,?,i,33,4,-2.5,·,-1,-13,-2.3,1
CCc1ccc2[nH]c(=O)c(CN(CCN(C)C)C(=S)NCc3ccco3)cc2c1,5.1,i,26,-16,9.2,-3,15,9,1.7,2
COc1ccc([C@H]2CC(=O)C=C(c3cc(F)ccc3OC)C2)cc1,·,i,·,8,-0.3,2,-20,-27,-8.2,·
O=C(NCc1ccco1)C1Cc2ccccc2CN1C(=O)c1ccco1 (stereo not drawn),-2.0,i,8,-9,-2.3,-1,3,5,-0.3,9

# (next part)
SMILES,RanGTP-Impb inh,FGF22 binding,T cruzi repl,ALR H2O2 inh,MLL AF4-AF9 inh,Beta cell apopt,rRNA inh HTS,rRNA inh HTS OD600,rRNA inh HTS RFP,Calb FLC
CC(C)(C)OC(=O)N1Cc2[nH]c3ccccc3c2C[C@@H]1C(=O)O,·,i,·,·,-3.6,-3,1,-1,-1.0,·
C=CCn1c(COc2ccccc2)nnc1SCC(=O)C(C)(C)C,-2.1,·,8,4,·,6,·,·,·,1
CCCCCC(=O)Nc1ccc2oc(-c3cncc(Br)c3)nc2c1,1.6,·,-10,-8,·,-3,·,·,·,4
O=[N+]([O-])c1nn(-c2ccc3c(c2)OCCO3)n(O)c1=NC1CCCCC1,-2.9,·,42,-13,·,10,·,·,·,11
COc1ccc(/C=N/NC(=O)c2cccc([N+](=O)[O-])c2)cc1OC(=O)c1ccc(C)cc1,-2.6,·,1,-6,·,-2,·,·,·,5
Clc1ccc(-c2nnc3sc(Cc4cccs4)nn23)cc1,0.3,·,3,-5,·,-5,·,·,·,7
NC(N)=N/N=C/c1ccc(OS(=O)(=O)c2ccccc2)cc1,1.4,i,57*,0,13,58,·,·,·,6
Cc1ccc(CN2CCN(Cc3nc4ccccc4nc3C)CC2CCO)cc1 (stereo not drawn),2.2,i,48,·,-39,-1,9,0,4.0,-6
C=Cn1c(N2CCOCC2)nc2c1c(=O)[nH]c(=O)n2C,-3.8,·,2,-5,·,-6,·,·,·,18
CCOc1ccc(Cl)cc1S(=O)(=O)N1CCN(c2ccc(C)c(C)c2)CC1,-1.2,·,-6,-12,·,·,-3,4,0.8,5
CCCN1CCN(c2nc3c([nH]2)c(=N)ncn3CC(O)CO)CC1 (stereo not drawn),-2.9,·,6,1,·,-4,·,·,·,-4
C#CCSc1nc(N)c2c(n1)OC(N)=C(C#N)C2c1cccnc1 (stereo not drawn),60*,i,-19,·,-5.4,-3,2,4,-4.0,?

# Bioassay records as filed in PubChem BioAssay.

# Some of the compounds tested, so the mix of outcomes need not match the whole.
